# CDC25B CDK2 inh = human CDC25B-CDK2/CyclinA binding inhibition | HTRF CDC25B-CDK2/CyclinA binding, anti-His/anti-Flag; stronger effect = higher value | z-score (no concentration beside the values) | hit rate 0.72% among 94,000 | AID 1259370;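 note: score is relative to mean and SD of negative controls; strong numbers were not always called active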
# TAR Tat displ = HIV-1 TAR-Tat binding disruption. hit rate 0.6% among 100,000. z-score (concentration not given with the values). HIV-1 TAR RNA, Tat peptide displacement FRET; stronger effect = higher value;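 note: score is relative to mean and SD of negative controls; some compounds called inactive have numbers as strong as hits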
# * hit, by the source's call; · = not tested or not shown; & = joins results of further samples.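 Rule for the calls: active = z-score from 3 up in half or more of its runs; inactive = the rest.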
# Every second line gives: CDC25B CDK2 inh	TAR Tat displ
- CC1CCCCN1Cc1nc2c(c(=O)n(C)c(=O)n2C)n1CC(=O)c1ccccc1 (configuration not stated)
→ -0.94	0.32
- Fc1ccc(-c2nc(-c3cc(Cl)c(Cl)s3)cs2)cc1
→ 1.6	·
- O=C(NCC(=O)c1cccs1)C1=Cc2cc(Br)ccc2OC=C1
→ -1.1	0.89
- O=C(c1cc(-c2ccco2)[nH]n1)N1CCN(C2CCCCC2)CC1
→ ·	-1.1
- Cc1cc(C)n(-c2nc3cc(Cl)ccc3nc2NCc2ccccc2)n1
→ ·	-0.27
- CC(C)NC(=O)CSC1=Nc2ccccc2C2=NC(C)C(=O)N12 (configuration not stated)
→ ·	0.16
- Cc1sc(-c2ccccc2)nc1CC(=O)NN
→ -1.7	·
- CC1CCC(Nc2c(-c3cccc(Cl)c3)nc3c(C#N)c[nH]n23)CC1 (configuration not stated)
→ -0.9	-1.6
- CCOc1ccc(Oc2nc(C)nc3sc(C)c(C)c23)cc1
→ ·	7.5*
- CCN(CC)CCOC(=O)C1(C2CCCCC2)CCCCC1
→ -0.47	-0.07
- COc1cc(NS(=O)(=O)c2cc(Br)cnc2N)cc(OC)c1
→ -1.5	1.3
- CC(/C=C1\SC(=S)N(CCC(=O)Nc2ccc3c(c2)OCO3)C1=O)=C\c1ccccc1
→ -2.4	·
- O=C(c1ccncc1)N(c1ccc2oc(=O)sc2c1)S(=O)(=O)c1cccs1
→ 1.8	-0.14
- N#C/C(=C/Nc1cccc(C(F)(F)F)c1)c1nc(-c2cc3cc(Br)ccc3oc2=O)cs1
→ -2.5	·
- O=c1cc(CSc2ncn[nH]2)[nH]c2ccccc12
→ ·	1.3
- Cc1c(C(=O)Nc2ccc(F)cc2)sc2nc3n(c(=O)c12)CCCCC3
→ ·	0.91
- Cc1ccc(-c2cc(-c3ccc(C)cc3)nc(N)n2)cc1
→ 0.08	0.36
- CN(C)Cc1cc(C(C)(C)C)cc(C(C)(C)C)c1O
→ -1.3	2
- O=C(Cn1c2ccccc2n2nc(-c3ccco3)nc12)c1ccccc1
→ -7.8	·
- CCOC(=O)N1CCC(Nc2c(N3CCC(N4CCCCC4)CC3)c(=O)c2=O)CC1
→ -1.1	0.46
- Cc1c(C(=O)N2CCC(C)CC2)sc2ncn(CC(=O)N3CCOCC3)c(=O)c12
→ -0.91	·
- COc1ccccc1C1CC(=O)Nc2nc(N)[nH]c(=O)c21 (configuration not stated)
→ -1.2	0.71
- COC(=O)CSc1nnc2c3c4c(sc3nc(SC)n12)COC(C(C)C)C4 (configuration not stated)
→ -3.8	0.87
- O=C(N1CCCCC1)N1c2ccccc2C=Cc2ccccc21
→ -1.5	0.75
- Cc1ccc(Nc2nc(NCCO)nc3c2cnn3C)cc1Cl
→ ·	2
- CN1C(=O)CSc2ccc(NC(=O)NCc3ccc(Cl)cc3)cc21
→ 0.03	-0.42
- O=C(c1cc2c(s1)-c1ccccc1SC2)N1CCCC1
→ -1.6	1.7
- O=c1oc2ccccc2n1Cc1ccccc1Cl
→ 1.9	0.48
- Cc1nc(-c2ccc(NC(=O)c3ccc(C(F)(F)F)nc3C)cc2)cs1
→ -0.39	·
- COc1ccc(C2CC(=O)NC3=C2C(=O)CC(C)(C)C3)c(OC)c1 (configuration not stated)
→ -0.46	-2

# The closing 5 records of the part above come first, to join the parts:
# Every second line gives: CDC25B CDK2 inh	TAR Tat displ
- CN1C(=O)CSc2ccc(NC(=O)NCc3ccc(Cl)cc3)cc21
→ 0.03	-0.42
- O=C(c1cc2c(s1)-c1ccccc1SC2)N1CCCC1
→ -1.6	1.7
- O=c1oc2ccccc2n1Cc1ccccc1Cl
→ 1.9	0.48
- Cc1nc(-c2ccc(NC(=O)c3ccc(C(F)(F)F)nc3C)cc2)cs1
→ -0.39	·
- COc1ccc(C2CC(=O)NC3=C2C(=O)CC(C)(C)C3)c(OC)c1 (configuration not stated)
→ -0.46	-2
- O=C(CCc1nnc2ccc(N3CCCCC3)nn12)NCC1CCN(C2CCCC2)C1 (configuration not stated)
→ ·	-0.13
- COc1ccc(S(=O)(=O)c2c(C(=O)c3ccc(C)cc3)cnc3cc4c(cc23)OCCO4)cc1
→ 6.7*	0.27
- Cc1ccc(NS(=O)(=O)c2c(C)[nH]c(=O)[nH]c2=O)cc1N(C)C
→ ·	1.5
- C/C(=N\O)c1csc(-c2ccccc2)n1
→ -0.11	·
- Cc1ccc(C2CC(C(F)(F)F)n3nc(C(=O)NCc4cnn(C)c4C)c(Cl)c3N2)cc1 (configuration not stated)
→ 4	1
- CCN(CC)S(=O)(=O)c1ccc2c(c1)N(CC(=O)NC(C)C)C(=O)CO2
→ 0.42	·
- O=C(NC1CCCC1)c1cc2ccccc2c(=O)s1
→ -2.2	0.74
- COCCCN1C(=O)c2[nH]nc(-c3cc(C)ccc3O)c2C1c1ccc(O)c(OC)c1 (configuration not stated)
→ -0.31	1.7
- O=C(c1ccc(CS(=O)c2ccc(Cl)cc2)o1)N1CCC(N2CCCCC2)CC1 (configuration not stated)
→ ·	1.5
- O=S(=O)(c1ccccc1)c1nc(-c2ccc(Br)cc2)oc1N1CCOCC1
→ ·	0.39
- O=C1/C(=C/c2cccs2)CC/C1=C\c1cccs1
→ 0.05	·
- CCOC(=O)c1ccc(-n2nnc3c(sc4nc(C)ccc43)c2=O)cc1
→ -1.2	-0.71
- Cc1cc(=O)n2[nH]c(Cc3ccccc3)nc2n1
→ 0.27	0.9
- COCCNc1nc(-c2ccccc2)nc2ccccc12
→ -2.1	-0.55
- Cc1oc(-c2cccc(Br)c2)nc1CSc1nc2ccncc2[nH]1
→ -1.7	1.4
- O=C1c2oc3ccccc3c(=O)c2C(c2ccc(O)cc2)N1c1ccccn1 (configuration not stated)
→ 1.8	0.96
- Cc1ccccc1CSc1nnc(C)c(=O)[nH]1
→ -3&0.03	0.12&1.8
- CCN(CCN(C)C)C(=O)Cn1ncc2c1-c1ccccc1OC2
→ -1.5	·
- CCCCSc1nnc(NC(=O)c2cc(=O)c3ccccc3o2)s1
→ -1.9	-0.02
- CN1CCc2c(sc(-n3cccc3)c2CNC(=O)NCC2CCCO2)C1 (configuration not stated)
→ 3.9	-8.2
- COc1ccc(S(=O)(=O)c2cc3cc(Cl)ccc3oc2=O)cc1OC
→ -1.1	·
- CCN1CCCC1CNC(=O)Cn1c(=O)c2cccn2c2ccc(F)cc21 (configuration not stated)
→ ·	2.3
- COc1cc(CNCCSc2nnnn2C)cc(Br)c1OC
→ -1.3	-0.06
- CCCc1c(C)nc2ccc(OC)cc2c1SCCC(=O)O
→ -1.5	1.7
- O=C1C=C(NCCSCc2cccc(C(F)(F)F)c2)CC(c2ccc(Cl)cc2)C1 (configuration not stated)
→ -1.2	·
- Cc1ccc(-c2coc(-c3ccc(N)cc3)n2)cc1C
→ ·	-0.3
- O=C(C1COc2cc(S(=O)(=O)NCc3ccc4c(c3)OCO4)ccc2O1)N1CCCCC1 (configuration not stated)
→ ·	2.5
- N#Cc1cnn(-c2ncnc3sc4c(c23)CCC4)c1N
→ -3.9	·
- CCOC(=O)C1CCCN(c2c(N3CCCC3)c(=O)c2=O)C1 (configuration not stated)
→ -0.56	-0.08
- COC(=O)c1scc(S(=O)(=O)c2ccc(Cl)cc2)c1C
→ -1.7	·
- CCCCc1cc2c(c(NC(C)=O)n1)c(=O)oc1ccccc12
→ 0.63	2.7
- O=C(Nc1nc(-c2ccccn2)cs1)c1nc2ccccc2s1
→ ·	0.34
- Cc1nn(CC(=O)N2CCOCC2)c(=O)c2c1sc1ccccc12
→ -1.8	1.3
- O=C(NC1CCc2ccccc21)C1CCN(c2cnccn2)CC1 (configuration not stated)
→ -2	0.35
- COc1ccc(/C=C/c2nn3c(Cc4ccccc4)nnc3s2)cc1
→ -1.1	-0.47
- CSc1nn(CC(=O)Nc2ccc(F)cc2)c(N)c1S(=O)(=O)c1ccccc1
→ ·	1.2
- Cn1c(-c2ccc(-c3nc4ccccc4[nH]3)cc2)nc2cc(N)ccc21
→ 4.5	-2
- CCn1nc(C)c(Br)c1-c1nc(-c2ccc(C)cc2)no1
→ -0.72	·
- CC1CCCC(NC(=O)c2cccc(NC3=NC4CS(=O)(=O)CC4S3)c2)C1C (configuration not stated)
→ -1.7	3.5
- O=C(COc1ccc(Cl)cc1)Nc1ccc2[nH]c(=O)sc2c1
→ ·	0.35
- Cc1cccc(CN2C(=O)c3ccccc3S(=O)(=O)c3ccc(C(=O)N4CCCC4)cc32)c1
→ -1.1	·
- CCN1CCN(CCCNC(=O)C2CCN(c3nnc(-n4cccc4)s3)CC2)CC1
→ -0.96	0.33
- CCOC(=O)c1cc(O)c(C(=O)OCC)cc1O
→ -1.5	1.9
- Cc1cccc(Nc2ncnc3c2cnn3C)c1C
→ ·	2.4
- O=C1Nc2ccccc2C(O)(C(=O)NCc2cccs2)N1c1ccccc1 (configuration not stated)
→ -0.44	·
- O=C(NCCSCc1cccc(C(F)(F)F)c1)Nc1cccc(C(F)(F)F)c1
→ -0.04	·
- COC(=O)c1cc2oc3ccccc3c2n1Cc1cc(=O)n2ccccc2n1
→ -0.21	·
- O=C(c1ccco1)N(c1cc2sc(=O)oc2c2ccccc12)S(=O)(=O)c1ccc(F)cc1
→ -0.12	-0.37
- N#Cc1c[nH]n2c(=O)c3c(nc12)CCC3
→ 0.07	0.98
- CCN1CCN(c2c(S(=O)(=O)c3ccc(OC)cc3)cnc3ccc(Cl)cc23)CC1
→ -2.2	0.16
- CCC(C)NC(=O)Cc1sc(C)nc1-c1cccs1 (configuration not stated)
→ -1.3	-1.2
- O=c1c2ccccc2c(Br)cn1Nc1ccc(Br)cc1
→ -2.8	·
- Cc1nc(CC(=O)Nc2ccc3c(c2)OCCO3)cs1
→ -1.1	0.65
- Cc1c(C(=O)N(Cc2cccs2)C2CCCCC2)sc2nc3n(c(=O)c12)CCCC3
→ ·	2.7
- Cc1nn(-c2ccccc2)c(-n2cccc2)c1CNC(=O)Nc1ccccc1Br
→ ·	-0.4
- Cc1c(C(=O)N2CCCC2)oc2c1-c1nn(CC(=O)N3CCc4ccccc4C3)cc1CC2
→ ·	0.34
- CCCCC1=NN(C(=O)COc2ccccc2C)C(O)(C(F)(F)F)C1 (configuration not stated)
→ -0.5	·
- O=C(Cn1c(=O)n(Cc2ccco2)c(=O)c2sc3ccccc3c21)NC1CCCCC1
→ 1.4	2.1
- COC(=O)c1sc(N2C(=O)c3oc4ccc(C)cc4c(=O)c3C2c2ccccc2F)nc1C (configuration not stated)
→ -1.7	2.5
- O=S(=O)(c1ccc(-c2cnc(C3CC3)o2)cc1)N1CCN(c2ccc(F)cc2)CC1
→ ·	1.2

# (next part)
# Every second line gives: CDC25B CDK2 inh	TAR Tat displ
- CCCn1c(=O)oc2cc(NS(=O)(=O)c3cnc[nH]3)ccc21
→ ·	0.84
- CC(C)N(C(=O)CSCc1nc2ccccc2[nH]1)c1ccccc1
→ -0.62	-0.02
- CCOC(=O)C1=C(C)NC2=C(C(=O)C(C(=O)OC)C(C)C2)C1c1ccccc1OCc1ccccc1 (configuration not stated)
→ -0.73	-0.69
- CCS(=O)(=O)c1ncc(Cl)c(C(=O)Oc2ccc(C)cc2C)n1
→ 0.15	0.96
- Cc1sc2c(c1C)CSC(C(=O)N1CCc3ccccc3C1)=C2
→ ·	-1.1
- Cc1nc2sc3c(NCC4CCCO4)ncnc3c2c2c1COC(C)(C)C2 (configuration not stated)
→ 0.25	1.1
- CCSc1nnc2[nH]c(=O)cc(N)n12
→ 0.28&-2	2.2
- CC1CN(c2ccc(Br)cc2)c2nc3c(c(=O)n(CCCO)c(=O)n3C)n2C1 (configuration not stated)
→ -0.95	2
- O=C(CN1C2=NCCCN2c2ccccc21)c1cccc(Br)c1
→ -0.28	·
- COC(=O)C1=C(C)NC(C)=C(C(=O)OC)C1c1ccc(OC)cc1
→ -1.1	·
- O=C(C1CCCN(c2nnc(-n3cccc3)s2)C1)N1CCN(c2ccccc2)CC1 (configuration not stated)
→ -1.2	-0.06
- O=c1cc(CSCc2ccccc2)nc2sc(-c3cccs3)nn12
→ 0.44	0.49
- O=C(Nc1cc(Cl)cc(Cl)c1)c1cc(Cl)sc1Cl
→ -1.8	·
- CC(C)OC(=O)CSc1nnc(-c2ccccc2Cl)o1
→ -3.3	0.63
- O=C(Nc1sc2c(c1C(=O)Nc1ccccc1)CCCCC2)c1ccco1
→ -2.2	-2.8
- CCC(C(=O)NCCc1c[nH]c2ccccc12)n1nc(C)c2sc3ccccc3c2c1=O (configuration not stated)
→ -1.7	3.8
- CCOC(=O)CN1CCN(c2ccc(C(F)(F)F)cc2N)CC1
→ -1.5	·
- COc1ccc(S(=O)(=O)Nc2noc3ccccc23)cc1OC
→ 4	1.9
- Cc1ccc(S(=O)(=O)[C@H]2CS(=O)(=O)C[C@@H]2N2CCN(c3ccccn3)CC2)cc1
→ -1.7	-1.5
- COc1cccc(NC(=O)c2noc3c2CSc2ccccc2-3)c1
→ -0.11	1
- O=S(=O)(c1ccc2c(c1)CCN2)N1CCN(c2ccc(F)cc2)CC1
→ ·	1.7
- Cc1cccc(-c2nc(-c3ccc4c(c3)ncn4C3CCCC3)no2)c1
→ ·	0.85
- O=C(NC1CCCC1)c1nnc(CS(=O)(=O)c2ccccc2)o1
→ ·	-2
- C=CCn1c(COc2ccc(OC)cc2)nc2ccccc21
→ -0.71	-0.84
- O=C(NCC1CCCO1)c1cc(-c2ccccn2)nc2ccc(S(=O)(=O)N3CCOCC3)cc12 (configuration not stated)
→ ·	0.87
- Cc1nc(SCC(=O)c2ccc(Cl)cc2)c2c(=O)n(C)c(=O)n(C)c2n1
→ -0.7	·
- CSc1ncc(Cl)c(C(=O)Nc2cccnc2)n1
→ -0.5	1.4
- c1ccc(N2CCN(c3ncc4c(n3)CCN(Cc3ccc5c(c3)OCCO5)C4)CC2)nc1
→ ·	-0.31
- COc1ccc(C(=O)Oc2ccc3c(C)cc(=O)oc3c2C(C)=O)cc1OC
→ 4.8	·

# Two entries from above, with tabs.
molecule	CDC25B CDK2 inh	TAR Tat displ
O=C(Nc1sc2c(c1C(=O)Nc1ccccc1)CCCCC2)c1ccco1	-2.2	-2.8
O=c1cc(CSCc2ccccc2)nc2sc(-c3cccs3)nn12	0.44	0.49

# Screens as filed in PubChem.

# Random draw from the library; any-hit rate near 0.9%.
